miR-21 reporter: qHTS Assay for Modulators of miRNAs and/orActivators of miR-21. Potency, µM (series often up to 38.3 µM), for the others: at the highest dose reporter change, positive = more light. AID 2288, 2010. HeLa miR-21 FLuc reporter, luciferase, 48 h. 340,000 tested, under 10 active; active = well fitted rising curve with a large enough effect; inconclusive = small, poorly fitted or top-dose-only effect; inactive = no such curve, though single readings can be large or run the other way;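 note: % of control where 0% means no effect; miR-21 action dims this reporter so a rising signal means less miR-21 action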
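HeLa cells endogenously expressing miR-21, stably carrying CMV-driven firefly luciferase with a downstream miR-21 binding site, 2000 cells/well. Titrations up to approximately 40 uM, 48 hours; luciferase luminescence read.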
* hit, by the source's call; ? = inconclusive; [ ] = remark or other dose. Not all compounds are listed; rates above refer to the full screens.

Structure	miR-21 reporter
CCCN(CCC)C(=O)Cn1c(=O)n(Cc2ccc(C(=O)NCCc3ccc(OC)c(OC)c3)cc2)c(=O)c2ccccc21	0%
CCOc1ccc(C(=O)Nc2cccc(OCc3cc(=O)n4cc(C)sc4n3)c2)cc1	-6%
CCC(C(=O)Nc1cc(-c2nc3cccnc3s2)ccc1C)c1ccccc1 (stereo not drawn)	-15%
O=C(COc1cccc(Cl)c1)N1CCC(c2nc3ccccc3s2)CC1	-5%
CCc1ccc(N(CC)C(=O)c2cc3c(=O)oc4ccc(C)cc4c3s2)cc1	0%
COc1cccc(Cn2cc(C(=O)c3ccccc3)c(=O)c3cc4c(cc32)OCO4)c1	-2%
COc1ccc(-n2nc3c(N4CCCC(C(=O)NCCc5ccccc5C)C4)nnc(C)c3c2C)cc1 (stereo not drawn)	?
COCCNC(=O)c1ccc2c(c1)N(Cc1cccc(Cl)c1)C(=O)c1ccccc1S2=O (stereo not drawn)	2%
O=C(CCn1cccn1)Nc1cccc(C(F)(F)F)c1	-11%
Cc1ccc(NC(=O)Cn2nnc(-c3ccccc3)n2)c(C)c1	5%
Cc1ccccc1CS(=O)(=O)Cc1ccc(C(=O)NCCc2ccc(Cl)cc2)o1	?
COc1ccc(N2C(=O)CSC23C(=O)N(Cc2ccccc2F)c2ccccc23)cc1Cl (stereo not drawn)	6%
COC(=O)c1ccc(OC)c(Cn2c(=O)n(Cc3ccccc3)c(=O)c3c2c2cc(OC)ccc2n3C)c1	-1%
Cn1c(=O)oc2cc(S(=O)(=O)CCC(=O)NCCc3ccc(Cl)cc3)ccc21	-1%
COCCCNC(=O)C1CCN(c2cc(C)nc3c(-c4ccc(Cl)cc4)c(C)nn23)CC1	-1%
CC(C)Oc1ccc(CNC(=O)c2ccccc2NC(=O)c2nsc3ccccc23)cc1	-1%
CC(C)Oc1ccc(CNS(=O)(=O)c2cnc(N)nc2)cc1	-4%
CCOc1cccc2sc(NC(=O)c3ccc(S(=O)(=O)N4CCCCC4C)cc3)nc12 (stereo not drawn)	27%
COc1cccc(-n2c(SCC(=O)Nc3ccc4c(c3)OCO4)nc3c([nH]c4ccccc43)c2=O)c1	0%
O=C1C2=C(C(=O)c3ccccc31)C1O[C@](c3ccsc3)(Cc3c1ccc1ccccc31)O2	-7%[7.66 µM]
CCCCCOc1ccccc1CN1C(=O)C(=O)c2cc(C)ccc21	0%
CCS(=O)(=O)N1CCC(n2c(C)nc3cccnc32)CC1	-1%
Fc1ccc(CNc2cc(-c3ccccc3)nc3nncn23)cc1	20%
Cc1ccc2c(c1)C(=O)OC(C(=O)Nc1ccccc1C(=O)O)C2 (stereo not drawn)	-6%
COc1ccc(Br)cc1C1C(C(=O)Nc2ccc(C)cc2C)=C(C)Nc2ncnn21 (stereo not drawn)	-2%

Next part:
Structure	miR-21 reporter
Cc1cc2c(cc1C)NC(CC(=O)Nc1ccccc1)C(=O)N2 (stereo not drawn)	-4%
CCCCCn1c(=O)[nH]c2cc(C(=O)NCc3ccc(Cl)cc3)ccc2c1=O	-3%
CCS(=O)(=O)N1CCc2cc(C(=O)NCCc3ccc(OC)c(OC)c3)ccc21	2%
COc1ccc(CNC(=O)C2CCN(c3nc4ccccc4[nH]3)CC2)c(OC)c1	11%
COc1ccc(CNC(=O)CSCc2nc(-c3ccccc3C)oc2C)cc1	-7%
CCOC(=O)c1cccc(NC(=O)c2cc3c(=O)n(Cc4ccccc4)ccc3nc2C)c1	18%
CCCCn1cc(S(=O)(=O)c2ccc(Cl)cc2)c(=O)c2cc(F)c(N3CCCC(C)C3)cc21 (stereo not drawn)	1%
O=C(NCc1ccccc1Cl)C(=O)NCC(c1cccs1)S(=O)(=O)c1ccccc1 (stereo not drawn)	17%
COCCNC(=O)c1ccc2c(=O)n(CCc3ccccc3)c(SCC(=O)CC(=O)OC)nc2c1	10%
COc1ccc(N2CC(NC(=O)c3cccs3)CC2=O)cc1 (stereo not drawn)	-2%
CC(=O)Nc1ccc(S(=O)(=O)Nc2cccc(-c3ccc(N4CCC(C)CC4)nn3)c2)cc1	?
Cc1ccc(-n2c(=O)c3c(cnn3C)n(Cc3ccccc3F)c2=O)cc1	1%
O=C(Nc1ccc(SC(F)F)cc1)c1cc(-c2cccs2)on1	-45%
O=C(CCCn1c(=O)c2ccccc2n(CC(=O)Nc2ccc(F)cc2F)c1=O)NCc1ccccc1Cl	-7%
COc1cccc(CC(=O)Nc2ccc3nc(N4CCC(C)CC4)cc(C)c3c2)c1	18%
COc1ccc(-c2onc(C)c2C)cc1S(=O)(=O)Nc1cccc(C#N)c1	24%
CN1C(=O)C2(c3ccccc31)N(c1cccc(C(F)(F)F)c1)C(=O)CS2(=O)=O (stereo not drawn)	0%
Cc1ccc(-c2cc(C(=O)N3CCN(c4ccccc4)CC3)c3ccccc3n2)cc1C	25%
COc1cc(NC(=O)CCc2c(C)nc3nc(-c4cc(OC)cc(OC)c4)nn3c2C)cc(OC)c1	5%
COc1cccc(N2C(=O)C(CC(=O)Nc3ccc(Cl)cc3)N(Cc3ccc4c(c3)OCO4)C2=O)c1 (stereo not drawn)	10%
Cc1ccc2[nH]c(CSc3nnc(NC(=O)COc4ccccc4F)s3)cc(=O)c2c1	3%
CC(=O)c1ccc(NC(=O)Nc2ccc3snnc3c2)cc1	-1%
COC(=O)c1c(NC(=O)c2ccc(S(=O)(=O)N3CCCCC3C)cc2)sc2c1CCN(C(C)C)C2 (stereo not drawn)	-2%
CCc1ccc(-n2c3nc(=O)[nH]c(=O)c-3cc3c(C)nn(-c4ccccc4)c32)cc1	0%
CCOc1ccc(N2C(=O)c3[nH]nc(-c4ccc(OC)cc4)c3C2c2cccs2)cc1 (stereo not drawn)	?

Sorted by molecular weight (highest first): part of the list above.
Structure	miR-21 reporter
O=C(CCCn1c(=O)c2ccccc2n(CC(=O)Nc2ccc(F)cc2F)c1=O)NCc1ccccc1Cl	-7%
COc1cccc(N2C(=O)C(CC(=O)Nc3ccc(Cl)cc3)N(Cc3ccc4c(c3)OCO4)C2=O)c1 (stereo not drawn)	10%
COCCNC(=O)c1ccc2c(=O)n(CCc3ccccc3)c(SCC(=O)CC(=O)OC)nc2c1	10%
CC(=O)Nc1ccc(S(=O)(=O)Nc2cccc(-c3ccc(N4CCC(C)CC4)nn3)c2)cc1	?
Cc1ccc2[nH]c(CSc3nnc(NC(=O)COc4ccccc4F)s3)cc(=O)c2c1	3%
CCOC(=O)c1cccc(NC(=O)c2cc3c(=O)n(Cc4ccccc4)ccc3nc2C)c1	18%
CCOc1ccc(N2C(=O)c3[nH]nc(-c4ccc(OC)cc4)c3C2c2cccs2)cc1 (stereo not drawn)	?
CCS(=O)(=O)N1CCc2cc(C(=O)NCCc3ccc(OC)c(OC)c3)ccc21	2%
COc1cccc(CC(=O)Nc2ccc3nc(N4CCC(C)CC4)cc(C)c3c2)c1	18%
COc1ccc(CNC(=O)CSCc2nc(-c3ccccc3C)oc2C)cc1	-7%
COc1ccc(-c2onc(C)c2C)cc1S(=O)(=O)Nc1cccc(C#N)c1	24%
O=C(Nc1ccc(SC(F)F)cc1)c1cc(-c2cccs2)on1	-45%
Cc1cc2c(cc1C)NC(CC(=O)Nc1ccccc1)C(=O)N2 (stereo not drawn)	-4%

Next part
Structure	miR-21 reporter
COC(=O)c1cc2oc(C)cc2n1Cc1ccc(Cl)cc1	-1%
COc1ccc(NC(=O)Nc2nnc(N(C)C3CCCCC3)s2)c(OC)c1	6%
Cn1c(=O)oc2cc(S(=O)(=O)CCC(=O)NCc3ccccc3)ccc21	-1%
COc1ccc(-c2cccc(NS(=O)(=O)c3cc(C)c(OC)c(C)c3C)c2)nn1	16%
CC(=O)c1cccc(NC(=O)c2cc3nc(-c4ccc(Br)cc4)cc(C(F)(F)F)n3n2)c1	-1%
Cc1cc2oc3c(c(=O)c2cc1C)C1(C(=O)N(C)c2ccccc21)N(CCO)C3=O (stereo not drawn)	-9%
Cc1ccc(C)c(NC(=O)CCCN2C(=O)COc3ccc(C)cc32)c1	?
CCOc1ccccc1NC(=O)Nc1nnc(N(C)Cc2ccccc2)s1	-1%
O=C(CSc1nc(=O)n(Cc2ccco2)c2c1CCC2)NCc1ccccc1Cl	1%
Cc1ccc(C(=O)c2cn(CC(=O)Nc3ccc(C(C)C)cc3)c3nc(C)ccc3c2=O)cc1	-1%
CCNc1nc2c(c(=O)n(C)c(=O)n2C)n1CC(O)COc1ccccc1 (stereo not drawn)	-1%
Cc1ccc(-c2nc3c4ccccc4n(CC(=O)NCc4ccc(F)cc4)c(=O)n3n2)cc1	-2%
CC(C)c1cnc2c(c1SCC(=O)NC(C)(C)C)c(=O)n(C)c(=O)n2C	-1%
O=C(CSc1nc2ccccc2n1Cc1cccc(F)c1)N1CCN(c2ccc(F)cc2)CC1	-7%
Cc1ccc(NC(=O)CN2CCN(C3CCCCC3)C(=O)C2=O)cc1	0%
N#Cc1ccc(-c2cccs2)nc1SCC(=O)Nc1cccc(C(F)(F)F)c1	-8%
Cc1nc2nc(-c3ccc(Cl)cc3Cl)nn2c(C)c1CCC(=O)Nc1ccc(F)cc1	11%
Cc1ccc2nc(CN3CCN(S(=O)(=O)c4ccc(F)cc4)CC3)oc2c1	-3%
COc1ccc(CNC(=O)COCc2cc(-c3ccc4c(c3)OCO4)on2)cc1	-13%
Cc1ccc(NC(=O)c2c(C)oc3nc(C)nc(N4CCCC4)c23)c(C)c1	-5%
COc1ccc(OC)c(CCNC(=O)c2nc(-c3ccc(Cl)cc3)n3c2CCCCC3)c1	2%
Cc1nc2nc(NCc3cccc(Cl)c3)[nH]n2c(=O)c1Cc1ccccc1	-6%
COc1ccc(CCNC(=O)CCc2c(C)nc3c4c(C)cc(C)nc4nn3c2C)cc1OC	0%
O=C(Nc1nc2ccccc2n1CCOc1ccccc1Cl)c1ccccc1	-46%
O=C(NCCC1=CCCCC1)c1ccc2c(c1)N(Cc1ccc(Cl)cc1)C(=O)c1ccccc1S2(=O)=O	-6%

(more compounds)
Structure	miR-21 reporter
COCC(C)NC(=O)c1cc2c(=O)n3cccc(C)c3nc2s1 (stereo not drawn)	-33%
O=C(CCn1cccn1)NCc1ccc(Cl)cc1	-1%
CC(=O)c1ccc(C(=O)N(Cc2cccnc2)c2nc3c(Cl)cccc3s2)cc1	1%
CCCNC(=O)c1cnc2sc(N3CCCCCC3)nn2c1=O	-20%
COc1ccc(-c2cc(C(F)(F)F)nc(SCC(=O)N(C)Cc3ccccc3)n2)cc1OC	3%
O=C(Cn1c(=O)n(-c2ccccc2)c(=O)c2sc3ccccc3c21)NC1CCCC1	-4%
O=C(NCCCN1CCN(c2ccc(F)cc2)CC1)c1cc2c(s1)-c1ccccc1OC2	?
CN(c1nnc(NC(=O)Nc2ccccc2C(F)(F)F)s1)C1CCCCC1	-37%
CC1=C(C(=O)NCc2ccccc2Cl)C2(CCCCCC2)OC1=O	8%
CCOc1ccc(CCNC(=O)c2cnc3c(-c4ccccc4)c(C)nn3c2C)cc1OCC	1%
Fc1ccc(-c2cc(-c3ccccc3)c3c(n2)-c2ccccc2OC3)cc1	-2%
CCOc1ccc(CCNC(=O)CN2N=C(c3ccccc3)CCC2=O)cc1OCC	-6%
Cc1cccc(CSc2nc3c(c(=O)[nH]2)C(c2cccc(O)c2)CC(=O)N3)c1 (stereo not drawn)	6%
COc1cc(NC(=O)Cn2nnnc2-c2ccccc2F)cc(OC)c1OC	-28%
O=c1cc(CSc2ncn[nH]2)[nH]c2c(Cl)cccc12	0%
COc1ccc(CNc2nc(-c3ccc(Cl)cc3)nn2S(=O)(=O)c2ccc(C)cc2)cc1	-3%
CCc1ccc(OCCSc2nc3ccccc3n2CC(=O)N2CCCCC2)cc1	10%
COc1cc(C(=O)NCCc2csc3nc(-c4ccccc4C)nn23)cc(OC)c1OC	0%
Cc1ccc(N2CC(NC(=O)C3CCCC3)CC2=O)cc1 (stereo not drawn)	-6%
Cc1ccc(CN(C(=O)COc2ccccc2[N+](=O)[O-])c2ccccn2)cc1	-24%
Cc1ccc(CCNc2nc3ccccc3c3nc(-c4ccccc4)nn23)cc1	-1%
Cc1c(C(=O)NCc2ccc(F)cc2)sc2nc3n(c(=O)c12)CCC3	3%
COc1ccc(C)cc1NC(=O)c1ccc2c(Cl)c3c(nc2c1)CCC3	-3%
O=C(NCc1ccc(F)cc1)c1ccc(CSCc2cccc(Cl)c2)o1	2%
Cc1cnc2c(c1SCC(=O)NCc1ccccc1Cl)c(=O)n(C)c(=O)n2C	-3%

(list continues)
Structure	miR-21 reporter
COc1ccc(NC(=O)Cn2c(=O)n(-c3ccc(C)c(C)c3)c(=O)c3c(C)c(C)sc32)cc1	13%
COc1ccc(C(CNC(=O)COc2cc(C)cc(C)c2)N2CCOCC2)cc1 (stereo not drawn)	-8%
Cn1cnc(S(=O)(=O)N2CCCC(C(=O)NCc3ccccc3)C2)c1 (stereo not drawn)	-2%
O=C(NC1CCCCC1)/C(=C/c1ccc(Cl)cc1)NC(=O)c1ccccc1	2%
Cc1ccc(-c2nc3n(n2)C(c2ccccc2Cl)C=C(c2ccc(Cl)cc2)N3)cc1 (stereo not drawn)	-3%
COc1cc2c(cc1OC)C(COc1ccc(F)cc1)N(C(=O)Cc1ccc(F)cc1)CC2 (stereo not drawn)	5%
CC(=O)c1ccc(NC(=O)CSc2nnc(N)s2)cc1	-32%
COCCNC(=O)CN1C(=O)COc2ccc(S(=O)(=O)N3CCOCC3)cc21	-2%
CC(=O)Nc1ccc(NC(=O)c2ccc3c(c2)CCN3S(=O)(=O)c2ccc(Cl)cc2)cc1	-1%

Screens from PubChem.
